MT1-MMP reporter: inhibitors of MT1-MMP promoter transcription, cell-based, luciferase reporter, luminescence (AID 618). MT1-MMP promoter luciferase reporter cells, luminescence. calls from a first round at 10 µM; hits with a dose series show EC50 in µM. actives 0.62% (n = 87,000);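 active means over half of the reporter light lost at 10 µM or EC50 under 50 µM; inactive means the rest and hits that failed the dose series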;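 further: actives suppress MT1-MMP promoter-driven transcription so potencies describe inhibitors; HT1080 fibrosarcoma cells; overnight exposure; toxic or luciferase-blocking compounds were not removed from the actives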
WNV protease inh: inhibitors of WNV NS2B-NS3 protease, primary screen, biochemical, fluorogenic substrate | AID 577, 2007 | actives 0.18% (n = 65,000) | z-score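 (tested at a level between 10 and 100 µM)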 | Genome polyprotein (West Nile virus), P06935 | fluorogenic substrate Ex360/Em465; active compounds read low;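 active means z-score at -3 or under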;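 further: score is relative to mean and spread of the compound wells of a plate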
Target sequence (P06935 1371-1501 limits assumed): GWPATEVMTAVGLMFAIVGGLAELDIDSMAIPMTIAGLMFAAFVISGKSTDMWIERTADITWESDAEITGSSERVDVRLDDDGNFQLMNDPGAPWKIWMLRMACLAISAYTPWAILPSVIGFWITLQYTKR
Target sequence (P06935 1502-1679 limits assumed): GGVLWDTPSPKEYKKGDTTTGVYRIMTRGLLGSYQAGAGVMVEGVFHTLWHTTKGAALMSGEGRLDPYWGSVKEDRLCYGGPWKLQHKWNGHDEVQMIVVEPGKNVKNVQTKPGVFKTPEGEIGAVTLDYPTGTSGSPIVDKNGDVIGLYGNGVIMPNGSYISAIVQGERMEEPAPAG
Hsc70 ATP site: Hsc70 inhibitors, probe displacement, primary screen, biochemical, fluorescence polarization (AID 568) | Heat shock cognate 71 kDa protein (Homo sapiens) | Hsc70 fluorescence polarization, probe displacement; higher % means a stronger effect; strong numbers were not always called active | one-dose displacement, % at 20 µM; IC50 in µM for titrated hits | 83,000 tested, under 10 active;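 active means displacement above 50% without optical interference and an IC50 on retest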;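 further: ATPase domain with a fluorescein-tagged ATP probe; 0% = vehicle and 100% = excess ADP; read after one hour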
* hit, by the source's call; i = inactive; / = no result given; + = active, no number.

SMILES	WNV protease inh	Hsc70 ATP site	MT1-MMP reporter
COc1ccc(OC)c2sc(NC(=O)CCS(=O)(=O)c3ccccc3)nc12	0.46	2.6%	i
CCOc1ccc(-c2nc(N)ncc2-c2ccccc2)c(O)c1	-0.32	0.2%	i
CC(C)CCNC(=O)c1ccc2nc[nH]c2c1	/	2.5%	i
CCN1CCN(C(c2cccc(OC)c2)c2sc3nc(C)nn3c2O)CC1 (stereo unspecified)	-0.57	1.2%	i
O=S(=O)(NC1CCCC1)c1cccc(S(=O)(=O)N2CCC(n3nnc4ccccc43)CC2)c1	-1.31	-2.6%	i
CC1CC(C)(C)NC(=O)O1 (stereo unspecified)	0.58	6.5%	i
Cn1c(-c2ccccc2)cc2c3no[n+]([O-])c3ccc21	-0.39	0.2%	i
C=CCSC1=NC(N)=C(C#N)C2(CCCCC2)C1C(N)=O (stereo unspecified)	0.3	2.4%	i
CCN1CCN(c2nc3c(C)cccn3c(=O)c2/C=C(\C#N)S(=O)(=O)c2ccc(C)cc2)CC1	-0.94	12.2%	i
Cc1ccc(Cn2nc(C)c(NC(=O)c3cc(-c4ccc5c(c4)OCO5)on3)c2C)cc1	-0.37	3.6%	i
COc1ccc(Oc2nnnn2-c2ccccc2)cc1	/	1.7%	i
COc1cccc(NC(=O)c2ccccc2-c2nc(-c3ccccc3)no2)c1	-0.68	-3.3%	i
CC(C)(C)NC(=O)CSc1nncn1NCc1c(Cl)cccc1Cl	/	-6.4%	i
C=CCOc1c(Cl)cc(C2NC(=O)NC(C)=C2C(=O)OC)cc1Cl (stereo unspecified)	1.67	-9.7%	i
CCCCCCn1c(SCCC)nc2c1c(=O)[nH]c(=O)n2C	0.47	6.7%	i
CCOc1ccc(C(=O)Nc2ccccc2N2CCOCC2)cc1	/	1.6%	i
N=c1c(C(=O)NCC2CCCO2)cc2c(=O)n3ccccc3nc2n1Cc1cccnc1 (stereo unspecified)	0.75	2.8%	i
O=C(CSc1nc(-c2ccco2)cc(C(F)(F)F)n1)N1CCN(c2cccc(Cl)c2)CC1	/	0.4%	i
CCC(C)(C(=O)NC1CCCCC1)N(C(=O)c1cnccn1)c1c(C)n(C)n(-c2ccccc2)c1=O (stereo unspecified)	-0.55	-0.9%	i
CC(C)Cn1c(N)c(C(=O)COC(=O)c2ccc3ccccc3n2)c(=O)n(C)c1=O	-0.56	1.5%	i
CCOC(=O)c1nnn(-c2nonc2N)c1-c1cccs1	-0.78	-3.2%	i
CC(C)Cc1nnc(NC(=O)CCN2C(=O)c3ccccc3C2=O)s1	0.14	-0.1%	i
CCCn1nnnc1NCc1cccn1C	-0.86	3.6%	i
CCNS(=O)(=O)c1ccc(NC(=O)c2cc(C(F)(F)F)nn2C)cc1	1.1	-4.2%	i
Cc1nc(NC(=O)CSc2nnc3ccccn23)c(Cl)cc1Cl	/	5.5%	i
O=C1CC(c2ccccc2)C(=O)N1c1cccc(O)c1 (stereo unspecified)	-0.4	11.1%	i
CC(C)(C)NC(=O)NC(=O)COC(=O)CCCc1c[nH]c2ccccc12	/	3.6%	i
CC(=O)Nc1c(O)nc(SCC(=O)N2CCN(c3ccc(F)cc3)CC2)[nH]c1=O	-0.92	4.9%	i
CC(C)OC(=O)CSc1nc2cccnc2n1C1CCCCC1	-0.46	-10.0%	i
Cc1noc(C)c1C(=O)NCCCc1ccccc1	-1.45	4.0%	i
CCOC(=O)c1sc(C)c2c1NC1(CCCCC1)NC2=O	0.92	6.8%	i
COc1ccc(NC(=O)c2oc3ccccc3c2NC(=O)COc2ccccc2OC)c(OC)c1	0.55	-2.8%	i
CCOC(=O)c1ccc(-n2c(-c3ccco3)nc3ccccc3c2=O)cc1	1.3	-5.5%	i
COc1ccc(NC(=O)/C(Cl)=C(/Cl)S(=O)(=O)Cc2ccccc2)cn1	/	3.6%	+
COc1ccc(S(=O)(=O)N2CCC(C(=O)N3CCCC3)CC2)cc1	0.46	-3.2%	i
c1ccc(CCc2ccccc2-c2nc(-c3ccccn3)no2)cc1	-0.55	9.2%	i
CCCCCOc1ccc(CN2CCOCC2)cc1Cl	0.83	-2.6%	i
O=C(CN(Cc1ccc2c(c1)OCO2)C(=O)CNS(=O)(=O)c1ccccc1)NCc1ccco1	0.07	3.7%	i
CCCOc1ccc(C(=O)NCCCn2ccnc2)cc1	0.93	3.1%	i
Cc1cccc(OCC(=O)Nc2ccc3c(c2)OCCO3)c1	-0.25	-1.5%	i
COC(=O)c1[nH]c2cccc(OC)c2c1NC(=O)CN1CCOCC1	-1.27	-4.0%	i
Cc1onc(-c2c(F)cccc2Cl)c1C(=O)Nc1cccc2nsnc12	0.02	2.2%	i
CN(C)S(=O)(=O)c1ccc(NC(=O)Cn2c(-c3ccccc3)noc2=O)cc1	/	0.8%	i
Cn1c(=O)c(C(=O)Nc2ccccn2)c(O)c2ccccc21	0.99	-20.6%	i
Cc1cccc(-n2ncc3c(NCCCN4CCCC4=O)ncnc32)c1	/	2.7%	i
COc1cc(C(O)P(=O)(OC(C)C)c2ccc(N(C)C)cc2)cc(OC)c1OC (stereo unspecified)	1.29	4.1%	i
Cc1ccc(CC2(O)CC(C)N(C)CC2C)c(C)c1 (stereo unspecified)	-0.88	2.1%	i
COC(=O)c1c(NC(=O)CSc2n[nH]c(N)n2)sc(C)c1C	0.44	-4.8%	i
COc1ccc(Cl)cc1S(=O)(=O)N1CCCC(C(=O)NCC(N)=O)C1 (stereo unspecified)	0.23	-5.7%	i
COc1ccc(S(=O)(=O)Cc2ccc(C(=O)N3CCN(C4CCCCC4)CC3)o2)cc1	-0.95	-1.4%	i
COc1cc(NC(=O)c2ccco2)c(OC)cc1NC(=O)c1cc(OC)c(OC)c(OC)c1	-0.54	4.1%	i
CCOP(=O)(c1ccc(N(C)C)cc1)C(O)c1c(Cl)cccc1Cl (stereo unspecified)	-1.12	-1.5%	i
CC(C)C(NS(=O)(=O)c1cccs1)C(=O)NCc1ccc2c(c1)OCO2 (stereo unspecified)	0.86	-3.2%	i
CCN1C(=O)C(CC(=O)Nc2c(C)cccc2C)SC1=Nc1ccc(S(N)(=O)=O)cc1 (stereo unspecified)	/	-1.7%	i
CC(C)C(=O)Nc1cccc(C(=O)NCCc2ccc(S(N)(=O)=O)cc2)c1	0.38	-3.6%	i
CC1(C)CC(=O)C(C=Nc2ccc3c(c2)OCO3)=C(O)C1	-1.18	1.1%	i

Later entries.
SMILES	WNV protease inh	Hsc70 ATP site	MT1-MMP reporter
Cc1csc(NC(=O)CN2CCCCCC2)n1	-0.52	2.7%	i
O=C1CC(C(=O)O)C2(CCCC2)O1 (stereo unspecified)	/	-2.6%	i
CCOC(=O)c1ccc(NC(=O)CN(C)S(=O)(=O)c2ccc(OC)cc2)cc1	0.85	0.4%	i
CCOC(=O)CN(C(=O)CNC(=O)c1cccs1)C(C(=O)NC1CCCCC1)c1cccnc1 (stereo unspecified)	/	-1.5%	i
O=C(O)CSCC(=O)Nc1ccc(S(=O)(=O)N2CCCCC2)cc1	-0.77	-3.4%	i
CCCCOCCCNC(=O)c1cccs1	-1.18	4.5%	i
Cc1ccc2c(c1)N(C(=O)c1ccco1)C(C)(C)c1ssc(=S)c1-2	/	0.6%	i
O=S(=O)(c1ccc(Br)s1)N1CCc2ccccc2C1	0.41	-4.8%	i
Cc1ccc(N(CC(=O)Nc2c(C)n(C)n(-c3ccccc3)c2=O)S(C)(=O)=O)cc1C	/	-0.6%	i
O=c1c(C(c2ccccc2)c2c(O)sc3ccccc3c2=O)c(O)sc2ccccc12	/	25.2%	i
COc1ccc(-c2nnc(NC(=O)c3cc(C)on3)s2)cc1	-1.88	2.0%	i
CC(C)(C)OC(=O)N1CCC(c2c(C(=O)O)cnn2-c2ccccc2Cl)CC1	-1.08	-0.8%	i
O=C(CCN1C(=O)c2ccccc2C1=O)OCn1nnc2ccccc2c1=O	-0.56	-1.8%	i
CC1=C(C(=O)Nc2ccccc2)C(c2cccs2)n2nnnc2N1 (stereo unspecified)	-1.76	-0.3%	i
CCOC(=O)N1CCN(C(=O)CC(=O)Nc2ccc3nc4n(c(=O)c3c2)CCCCC4)CC1	0.83	-3.0%	i
c1ccc(-n2cnc3cc(NCc4cccs4)ccc32)cc1	/	6.3%	i
Cc1ccc(S(=O)(=O)N2CCCN(c3nc4cc(C)ccc4cc3C#N)CC2)cc1	/	-0.6%	i
CCN(CC)c1ccc2oc(=O)c(C)nc2c1	-0.52	-31.4%	i
CCOCC(=O)Nc1cccc(OC)c1	-0.24	-2.9%	i
Cc1ccc(C(=O)NCc2ccco2)cc1S(=O)(=O)N1CCCCC1	-0.04	3.6%	i
COCC(=O)Nc1cc(=O)n(C)c(=O)n1C	0.52	-1.0%	i
COc1cc2[nH]c(=O)n(CCCCCC(=O)NCCCN3CCC(C)CC3)c(=O)c2cc1OC	/	1.9%	i
C=CCN(Cc1cc(OC)ccc1OC)S(=O)(=O)N(C)C	2.25	-1.2%	i
COC(=O)c1cc(S(=O)(=O)n2nc(C)c(Br)c2C)c(Cl)cc1Cl	/	3.4%	i

The closing 4 entries of the section above lead into the next:
SMILES	WNV protease inh	Hsc70 ATP site	MT1-MMP reporter
COCC(=O)Nc1cc(=O)n(C)c(=O)n1C	0.52	-1.0%	i
COc1cc2[nH]c(=O)n(CCCCCC(=O)NCCCN3CCC(C)CC3)c(=O)c2cc1OC	/	1.9%	i
C=CCN(Cc1cc(OC)ccc1OC)S(=O)(=O)N(C)C	2.25	-1.2%	i
COC(=O)c1cc(S(=O)(=O)n2nc(C)c(Br)c2C)c(Cl)cc1Cl	/	3.4%	i
Cc1ccc(C(=O)NCCCN2CCOCC2)cc1	/	-3.7%	i
CCN(CC)C(=O)c1cnn(-c2ccccc2)c1NC(=O)c1cccs1	/	2.3%	i
CC(=O)c1ccc(NCC(=O)N2CCN(c3ccccc3)CC2)cc1	/	-2.2%	i
Cc1c(NC(=O)c2ccc(=O)oc2)c(=O)n(-c2ccccc2)n1C	-0.54	-9.0%	i
O=C(CN1C(=O)CCS(=O)(=O)c2ccccc21)Nc1cccc(F)c1	1.25	-1.3%	i
N#Cc1cc2c(nc1SCc1ccccc1)CCCCC2	/	-1.2%	i
O=C(CN(Cc1ccco1)C(=O)CNS(=O)(=O)c1ccc(F)cc1)NCCc1ccccc1	-0.00475	0.5%	i
CCCOc1ccc(/C(O)=C2/C(=O)C(=O)N(CCOC)C2c2cccnc2)cc1 (stereo unspecified)	0.89	1.8%	i
O=C(CCn1nc(-c2ccccc2)ccc1=O)NCCCN1CCCCCC1	-0.14	3.7%	i
O=C(OCC1CCCN2CCCCC12)c1ccc2c(c1)OCO2 (stereo unspecified)	0.76	-1.6%	i
Cc1nc2ccc3[nH]snc3c2n1	0.29	-2.6%	i
O=C(COc1ccc(-n2cnnn2)cc1)NCCc1ccc(F)cc1	-0.73	2.7%	i
CC(C)(C)N1CC2([N+](=O)[O-])CN(C(C)(C)C)CC([N+](=O)[O-])(C1)C2	/	4.4%	i
Cc1nnsc1C(=O)Nc1cccc(Cl)c1Cl	/	3.6%	i
CCn1c(SCc2nc(-c3ccc(OC)c(OC)c3)no2)nnc1-c1cccs1	-0.54	-1.2%	i
O=S(Cc1cc(Sc2ccccc2)nc(-c2ccccc2)n1)c1ccccc1 (stereo unspecified)	/	3.5%	i
CN1CCN(C(=O)c2c(O)c3cccc4c3n(c2=O)CC4)CC1	-0.85	0.5%	i
COc1ccccc1CN1C(=O)CCC1(C)C(=O)NCc1cccnc1 (stereo unspecified)	-0.24	-4.0%	i
O=C(O)CCNC(=O)c1ccc(Br)o1	-0.12	2.8%	i
CCCC(c1nnnn1Cc1ccc(OC)cc1)N1CCN(c2ccccc2OC)CC1 (stereo unspecified)	-0.95	-3.7%	i
COc1ccc2[nH]c(=O)c(CN(C)C(=O)c3ccncc3)cc2c1	1.42	-2.0%	i
CCCn1c(SCC(=O)N2CCN(c3ccc(OC)cc3)CC2)nc2c1c(=O)n(C)c(=O)n2C	0.41	0.8%	i
Cc1ccccc1N(CC(=O)NC1CCCC1)C(=O)CS(=O)CC(=O)Nc1ccc2c(c1)OCO2 (stereo unspecified)	1.65	-6.5%	i
CN(C)/C=N/c1c(C#N)nnn1Cc1ccccc1	-0.35	0.3%	i
COc1ccc(-n2c(=O)[nH]cc(C(=O)Nc3ccc(NC(C)=O)cc3)c2=O)cc1	0.46	2.0%	i
Cc1ccc(-n2c(-c3ccccc3)cc(=O)nc2C)cc1	/	6.2%	i
COc1cc(NC(=O)CS(=O)(=O)c2ccc(C)cc2)cc(OC)c1OC	2.64	0.3%	i
Cc1ccc(SCCNC(=O)CN2C(=O)c3ccccc3S2(=O)=O)cc1	-0.93	7.0%	i
CCN1CCN(Cc2ccc(NC(=O)Nc3ccc(OC)cc3)cc2)CC1	-0.9	2.4%	i

Bioassay records (PubChem)

Rows were taken by chance (roughly 0.77% active in at least one column).
